VDR inh = Inhibitors of the vitamin D receptor (VDR): qHTS; VDR-SRC2-3 peptide fluorescence polarization, 2 h; 400,000 tested, 0.93% active; Potency, µM, for inactives: max response, negative = inhibition, hits mostly inhibitors; Vitamin D3 receptor (Homo sapiens), P11473; AID 504847, 2011; active = well fitted inhibition curve with a large enough effect; inconclusive = small, poorly fitted or top-dose-only effect, or another doubt; inactive = no such curve, though single readings can be large or run the other way; note: series mostly up to about 120 µM
Target sequence (P11473 whole entry, looked up): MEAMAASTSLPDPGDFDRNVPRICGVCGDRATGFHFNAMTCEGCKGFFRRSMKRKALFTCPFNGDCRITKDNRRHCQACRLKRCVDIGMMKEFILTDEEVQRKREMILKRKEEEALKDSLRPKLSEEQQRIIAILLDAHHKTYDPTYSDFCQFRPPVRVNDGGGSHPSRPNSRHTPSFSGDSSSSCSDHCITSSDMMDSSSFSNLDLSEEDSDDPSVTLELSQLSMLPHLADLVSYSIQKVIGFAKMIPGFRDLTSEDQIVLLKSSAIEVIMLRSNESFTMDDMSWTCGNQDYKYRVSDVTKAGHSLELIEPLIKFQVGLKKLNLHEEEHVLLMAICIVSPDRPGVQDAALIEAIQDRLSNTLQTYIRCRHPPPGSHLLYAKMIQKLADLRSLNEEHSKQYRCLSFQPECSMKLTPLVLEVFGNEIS
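Fluorescence polarization assay measuring small-molecule disruption of VDR binding to the coregulator peptide SRC2-3. Compounds were pin-transferred (23 nl) into the reagent mix and incubated 2 h at room temperature before reading.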
* hit, by the source's call; & = joins results of further samples. % is set by controls: 0 for no effect and ±100 for the full control effect; potency is the fitted concentration of half-maximal effect. This is a subset; rates above refer to the full screens.

COc1cccc2c1C(=O)c1c(O)c3c(c(O)c1C2=O)C[C@](O)(C(=O)CO)C[C@@H]3O[C@H]1C[C@H](N)[C@@H](O)[C@H](C)O1 was read as VDR inh 5.2%.
Screening CCOc1ccc(-c2cc(C(=O)NN)[nH]n2)cc1 returned VDR inh -10.6%.
Screening CC(C)(C)N1CC(c2nc3ccccc3n2CCOc2ccccc2)CC1=O (centres undefined) returned VDR inh 11.8%.
CCCCNc1nc(=S)[nH]c2cc(OC)c(OC)cc12 was read as VDR inh -6.3%.
`COc1ccc(NC(=O)c2ccc(CN3CCN(c4ccccc4)CC3)cc2)cc1` gave VDR inh 4.1%.
For COc1cccc2cc(C(=O)N3CCN(c4ncccn4)CC3)c(=O)oc12 the results were VDR inh 4.3%.
Screening COc1cccc(CNC(=O)C(=O)NCCC2CCCCN2S(=O)(=O)c2ccccc2)c1 (centres undefined) returned VDR inh -12.6%.
Screening CCc1ccc(NC(=S)NCC2CCCN2CC)cc1 (centres undefined) returned VDR inh -6.6%.
Screening COc1cccc([C@@H]2Oc3ccc(Br)cc3C(=O)[C@H]2OC(=O)NCc2ccco2)c1 returned VDR inh 3.1%.
O=C1CSC(c2ccc(F)cc2)N1c1nc2ccccc2s1 (centres undefined) was read as VDR inh -4.8%.
`CCOc1ccc(C(=O)CCC(=O)NN2C(=O)NC3(CCCCC3)C2=O)cc1` gave VDR inh -4.9%.
For CC(OC(=O)C12CCC(=O)N1c1ccccc1S2)C(=O)Nc1cccc(Cl)c1 (centres undefined) the results were VDR inh -11.3%.
`COc1ccc(S(=O)(=O)NCCSCc2ccc(Cl)cc2)cc1NC(C)=O` gave VDR inh 10.4%.
`O=C(NC1CCCCC1)N(Cc1cc2cc3c(cc2[nH]c1=O)OCCO3)CC1CCCO1` (centres undefined) gave VDR inh 3.7%.
O=C(Nc1ccccc1-c1ccccc1)c1cccc([N+](=O)[O-])c1 was read as VDR inh 2.4%.
`COc1ccc(C2NS(=O)(=O)OCC2C)cc1` (centres undefined) gave VDR inh -13.0%.
For O=C1CC(c2ccccc2)CC(O)=C1C=Nc1ccc(O)cc1 (centres undefined) the results were VDR inh -4.7%.
COc1ccc(CC(=O)NNc2ncnc3c2cnn3C)cc1OC was read as VDR inh 6.8%.
O=C(Nc1ccc(NC(=O)c2cccs2)cc1)c1cccc(Br)c1 was read as VDR inh -5.9%.
`COc1ccc(Cl)cc1C(=O)Nc1ccc2c(c1)OCCO2` gave VDR inh -0.3%.
`C#CCOCCOCCOCCNc1nc(N2CCN(C(=O)CCCCCCCCCCNC(=O)Cn3cc(C[C@@H](C)O)nn3)CC2)nc(N2CCN(C(=O)CCCCCCCCCCNC(=O)[C@@H]([C@H](C)O)n3cc(C)nn3)CC2)n1` gave VDR inh 14.2%.
`COc1ccccc1OCCSc1ncnc2nc[nH]c12` gave VDR inh -10.5%.
CCOC(=O)C1(CC)NC(c2cccc(F)c2)C2C(=O)N(CC)C(=O)C21 (centres undefined) was read as VDR inh -5.2%.
`COc1cc(C)c(CN2CCCCC2CO)cc1C` (centres undefined) gave VDR inh 5.6%.
For O=C(CN1CCN(C(=O)c2cccc(S(=O)(=O)N3CCCC3)c2)CC1)Nc1ccccc1Cl the results were VDR inh 0.9%.
Cc1nc2c(-c3ccccc3)c(C)[nH]n2c(=O)c1Cc1ccc(C(C)C)cc1 was read as VDR inh -1.6%.
`Cc1nn(-c2ccccc2)c(C)c1CN` gave VDR inh -10.5%.
For O=C(NC1Cc2ccccc2C1)c1cc(COc2ccc(F)cc2Cl)on1 the results were VDR inh 4.5%.
For O=C(NCc1ccc(F)cc1F)Nc1cnccc1C(F)(F)F the results were VDR inh 0.7%.
`CC(NC(=O)CC1SC(N)=NC1=O)c1ccccc1` (centres undefined) gave VDR inh 8.6%.
Screening CCOC(=O)c1cn(CC(=O)Nc2cccc(Cl)c2)nn1 returned VDR inh 23.9%.
Screening CCN1C(=O)c2cccc3c(S(=O)(=O)NCc4ccccc4)ccc1c23 returned VDR inh -17.5%.
CCOC(=O)C1CCCN(CCC(=O)Nc2ccc(F)c(F)c2)C1 (centres undefined) was read as VDR inh -6.5%.
For O=C1N/C(=C/c2ccc(N3CCOCC3)o2)C(=O)N1c1cccc(Cl)c1 the results were VDR inh inconclusive.
CCOC(=O)Cn1c(=O)oc2cc(S(=O)(=O)N(C)c3cccc(C)c3)ccc21 was read as VDR inh -6.4%.
`O=C(Cn1cc([N+](=O)[O-])cn1)NC1CCCCCC1` gave VDR inh 1.5%.
`Cc1ccc(NC(=O)C2CCN(c3ncnc4sc(C)c(C)c34)CC2)cc1S(=O)(=O)N(C)C` gave VDR inh 7.2%.
CCN(CC)S(=O)(=O)c1cccc(NC(=O)CCNC(=O)NC23CC4CC(CC(C4)C2)C3)c1 was read as VDR inh -2.6%.
For Cc1ccc(CNC(=O)CCCC(=O)Nc2cc(C)on2)cc1 the results were VDR inh inconclusive.
For Nc1c(Cl)cnc(C(Cl)(Cl)Cl)c1Cl the results were VDR inh -10.5%.
Screening COc1ccc(S(=O)(=O)Nc2ccc(-c3ccc(N4CCCC4)nn3)cc2)cc1C returned VDR inh -12.0%.
Screening COc1ccc(CCC(=O)N2CCN(S(=O)(=O)c3ccc4ccccc4c3)CC2)cc1 returned VDR inh 9.1%.
Screening Cc1occc1C(=O)NCCCCc1ccccc1 returned VDR inh -14.7%.
O=c1c(-c2cccc(Cl)c2)nc2cncnc2n1Cc1ccccc1 was read as VDR inh -28.9%.
COc1cc(OC)cc(C(=O)Nc2ccc3c(c2)OCCO3)c1 was read as VDR inh 0.7%&35.1%.
For COC(=O)C1C(=O)C=C(Nc2ccc(F)cc2)CC1c1ccc(OC)cc1 (centres undefined) the results were VDR inh -17.3%.
COc1ccc(/C=C(\NC(=O)c2ccco2)C(=O)N2CCCCC2)cc1 was read as VDR inh inconclusive.
Cc1cc(=O)[nH]c2cc(Cl)ccc12 was read as VDR inh 5.4%.
CCOC(=O)N1CCN(CCC(=O)Nc2cc(C)ccc2OC)CC1 was read as VDR inh 14.6%.
`COc1cc(C2CC(c3c(C)cc(C)[nH]c3=O)=NN2c2ccccc2F)cc(OC)c1OC` (centres undefined) gave VDR inh -4.9%.
Cc1ccc(Cn2c(SCc3ccc(C(=O)N4CCCCCC4)cc3)nc3ccncc32)cc1 was read as VDR inh 3.0%.
Screening CCCn1nnc(NC(=O)c2ccc(Cl)cc2Cl)n1 returned VDR inh -10.2%.
Screening O=C(CCc1ccc(S(=O)(=O)N2CCOCC2)cc1)OCc1nc2ccccc2s1 returned VDR inh -8.5%.
Screening CCN1CCC(N(Cc2cccc(OC)c2)C(=O)Nc2ccc(C)cc2Cl)CC1 returned VDR inh 7.8%.
`O=C(COC(=O)c1ccc(Cl)s1)c1cc2ccccc2o1` gave VDR inh 15.2%.
Screening c1ccc(-c2ccccc2OCCCCN2CCCCCC2)cc1 returned VDR inh -17.3%.
COc1cccc(C=NNC(=O)C2CC2)c1 was read as VDR inh -3.6%.
For COc1ccc(-c2ccc([C@H]3[C@@H]4C=CCC[C@@]4(C)C(=O)N3Cc3ccccc3)c(F)c2)cc1 the results were VDR inh -12.5%.
`CCC(NC(=S)NCc1ccc(F)cc1)c1ccc(C(C)C)cc1` (centres undefined) gave VDR inh -4.1%.
Screening COC(=O)C1=C(C)NC(C)=C(C(=O)OC)C1C1CC=CCC1 (centres undefined) returned VDR inh 10.1%.
For NC(=O)C1CCN(CCCNC2CC(=O)N(Cc3ccc(N4CCCC4=O)cc3)C2=O)CC1 (centres undefined) the results were VDR inh 1.8%.
Screening CC1CCCCC1NC(=O)CO/N=C/c1ccccc1OC(F)F (centres undefined) returned VDR inh 7.2%.
For COC(=O)C1=C[C@@H](C(=O)OC)[C@@H]2C3=C(C(=O)[C@@]2(C)NC(=O)c2ccccc2)[C@H](C)[C@@H]2C(=O)N(Cc4ccccc4)C(=O)[C@@H]2[C@@H]3C1 the results were VDR inh -19.4%.
Cc1ccc(NC(=O)CN2C(=O)CN(C)C2=O)cc1S(=O)(=O)N1CCCCC1 was read as VDR inh -4.5%.
COc1cccc(C(=O)OCC(=O)NC(=O)NC2CCCC2)c1O was read as VDR inh -4.8%.
Screening CCN(CC)CC(=O)Nc1c2c(nc3ccccc13)N(C)CC2 returned VDR inh -14.7%.
CC(=O)Cn1c(C(F)(F)F)nc2ccccc21 was read as VDR inh -7.1%.
N#CC1=C(N)C2=C(N3CCCCC3)CCCC2C1(C#N)C#N (centres undefined) was read as VDR inh inconclusive.
`CC12CCC(=O)C=C1CCC1C2CCC2(C)C(C(=O)CO)CC(O)C12` (centres undefined) gave VDR inh 5.7%.
For COC(=O)c1sccc1NC(=O)c1cc(OC)cc(OC)c1 the results were VDR inh 11.1%.

Retrieved by structure from above, 6 records:
For COC(=O)c1sccc1NC(=O)c1cc(OC)cc(OC)c1 the results were VDR inh 11.1%.
`CC12CCC(=O)C=C1CCC1C2CCC2(C)C(C(=O)CO)CC(O)C12` (centres undefined) gave VDR inh 5.7%.
Screening CC1CCCCC1NC(=O)CO/N=C/c1ccccc1OC(F)F (centres undefined) returned VDR inh 7.2%.
CC(=O)Cn1c(C(F)(F)F)nc2ccccc21 was read as VDR inh -7.1%.
COc1cccc(C(=O)OCC(=O)NC(=O)NC2CCCC2)c1O was read as VDR inh -4.8%.
Cc1ccc(NC(=O)CN2C(=O)CN(C)C2=O)cc1S(=O)(=O)N1CCCCC1 was read as VDR inh -4.5%.

The list continues.
`CNc1nc(Cl)nc2c1ncn2-c1ccccc1` gave VDR inh 9.4%.
N#CC1(Nc2ccc3ccccc3c2)CCCC1 was read as VDR inh 1.5%.
For Cc1ccccc1CC(=O)NCC1CCCCC1 the results were VDR inh -6.7%.
For CN1/C(=C/C(=O)C2CCC2)Sc2ccccc21 the results were VDR inh 2.0%.
CNC(=S)Nc1cccc(C(=O)O)c1 was read as VDR inh -11.1%.
`Cc1[nH]c2ccc(F)cc2c1CCN(Cc1cccnc1)C(=S)NC(C)(C)C` gave VDR inh -10.7%.
Screening NC(=O)c1c(NC(=O)c2ccc(F)cc2)sc2c1CCC2 returned VDR inh 11.2%.
Screening Cc1cccc(Cn2c(CNS(=O)(=O)c3ccc(C(C)C)cc3)nc3cccnc32)c1 returned VDR inh 12.5%.
Screening C/C(=N\NC(=O)COc1ccccc1-c1ccccc1)c1ccccn1 returned VDR inh -4.5%.
`CCCCNC(=O)[C@@](CC)(ONc1ccccc1C(F)(F)F)c1cccc2ccccc12` gave VDR inh -13.2%.
`O=C(CNC(=O)c1ccc(Br)cc1)NCC(=O)OCC(=O)c1ccc(F)cc1` gave VDR inh -11.8%.
Screening O=C(Nc1c(F)cc(F)cc1Br)c1cc(-c2ccccc2)on1 returned VDR inh -30.7%.
Screening Cc1nc(C)n(C(Oc2ccc(Cl)cc2Cl)C(=O)C(C)(C)C)n1 (centres undefined) returned VDR inh 10.4%.
For CCCCC(=O)Nc1cc(Cl)ccc1C(=O)O the results were VDR inh -24.2%.
`COC(=O)c1ccc(NC(=O)C(C)Sc2nc(=O)cc(N)n2CCc2ccccc2)cc1` (centres undefined) gave VDR inh 11.8%.
For CCCCNC(=O)Cn1c(SCc2cccc(F)c2)nc2ccncc21 the results were VDR inh -6.0%.
`CCn1c(COc2ccccc2)nnc1SCC(=O)NCc1ccco1` gave VDR inh 3.6%.
`COc1ccc(N2CCN(C(=O)C3CCN(S(=O)(=O)c4ccc5c(c4)oc(=O)n5C)CC3)CC2)cc1` gave VDR inh -9.4%.
For CCCCn1c(N)c(N(CC)C(=O)CSCc2c(C)noc2C)c(=O)[nH]c1=O the results were VDR inh 15.5%.
`CC(C)(C)OC(=O)[C@H](Cc1ccccc1)NC(=O)c1nc[nH]c1C(=O)N1CCc2ccccc2C1` gave VDR inh -19.3%.
For COc1ccccc1NC(=O)COC(=O)CC(C)(C)CC1=NS(=O)(=O)c2ccccc2N1 the results were VDR inh -20.1%&8.8%.
Screening COc1ccc(C2C(=O)N(C3CCC(C)CC3)CC(=O)N2C2CCCCC2)cc1OC (centres undefined) returned VDR inh 20.8%.
Screening COc1ccc(SCCc2nnc(-c3ccccc3)o2)cc1 returned VDR inh -12.5%.
For O=C(CO/N=C/c1cccc([N+](=O)[O-])c1)NC1CCCCC1 the results were VDR inh -10.9%.
For Cc1ccc(C(=O)N2Cc3ccccc3CC2C(=O)O)cc1 (centres undefined) the results were VDR inh 14.1%.
`COc1ccc(C(=O)N2CCC[C@@]3(CCN(C(=O)Nc4cccc(C#N)c4)C3)C2)cc1` gave VDR inh 10.7%.
For COc1cc2cc(Br)cc(Br)c2nc1C the results were VDR inh 5.4%.
Screening COC(=O)c1sc2cc(C(F)(F)F)cnc2c1-c1cccnc1 returned VDR inh -9.8%.

3 consecutive entries out of the list so far, for reference:
For COc1ccccc1NC(=O)COC(=O)CC(C)(C)CC1=NS(=O)(=O)c2ccccc2N1 the results were VDR inh -20.1%&8.8%.
Screening COc1ccc(C2C(=O)N(C3CCC(C)CC3)CC(=O)N2C2CCCCC2)cc1OC (centres undefined) returned VDR inh 20.8%.
Screening COc1ccc(SCCc2nnc(-c3ccccc3)o2)cc1 returned VDR inh -12.5%.
